Screening results as filed in PubChem.
Six1-Eya2 blk: blocks human Six1 binding to Eya2; AlphaScreen GST-Six1/His-Eya2 binding, biochemical; active compounds read low; control for the full effect not named in the record; activity change, % (test concentration not listed); 360,000 compounds, 0.56% hits; Q15475+O00167; in the data active = activity change below about -65%; inconclusive = about -30% to -65%; inactive = above about -30%; further: on the % scale 0 is the no-effect control and ±100 the full control effect
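GST-Six1 + His-Eya2 (5X stock: 250/500 nM); Tris pH 8.0, 300 mM NaCl, 0.05% BSA, 0.02% Tween 20; GSH donor/Ni acceptor beads; 1 h 37 °C dark; AlphaScreen readout.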
CtBP-E1A inh: blocks the CtBP interaction with E1A; AlphaScreen GST-E1A/His-CtBP binding, 1536-well; active compounds read low; control for the full effect not named in the record; AID 651724; activity change, % (test concentration not listed); 340,000 compounds, 0.49% hits; in the data active means activity change below about -65%; inconclusive means about -30% to -65%; inactive means above about -30%; further: on the % scale 0 is the no-effect control and ±100 the full control effect
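AlphaScreen with 125 nM GST-E1A and 125 nM His-CtBP (5X stocks) in Tris pH 8.0, 300 mM NaCl, BSA, Tween 20, TCEP. Compounds preincubated 2 h at 37 deg C, then glutathione donor/nickel acceptor beads added for 1 h at 37 deg C in dark.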
TRPML1 blocker: inhibitors of human TRPML1 channel | Q9GZU1 | TRPML1-inducible cells, Ca2+ dye fluorescence, FDSS; active compounds read low; inhibition of EC80 agonist-evoked calcium signal | activity change, negative = inhibition, % (concentration not given with the values) | 390,000 compounds, 0.02% hits | AID 624415; in the data active means activity change below about -50%; inconclusive means about -30% to -50%; inactive means above about -30%;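 further: stimulus is agonist 54-4 at its EC80 concentration; on the % scale 0 is the no-effect control and ±100 the full control effect; the text of the record puts the active cut at -80%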
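TRPML1-DL cells, Tet-induced overnight (~16 h, 37 °C) at 1,500 cells/well, were loaded with Ca8 no-wash dye plus quencher for 45-90 min at room temperature. Compounds were pinned during FDSS kinetic reading; agonist 54-4 at EC80 (4 uM final) then added.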
TRPML1 agonist: activates the human TRPML1 channel. AID 624414. Q9GZU1. activation, % (test concentration not listed). TRPML1-expressing cells, Ca2+ dye fluorescence, FDSS; host cell line not named in the record; reference of the full effect not given here. 410,000 compounds, 0.12% hits; in the data active = activation above about 50%; inconclusive = about 30% to 50%; inactive = below about 30%; further: 0% is about no effect; the text of the record puts the active cut at 80%
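Tet-induced TRPML1-DL cells, 1,500 per well, cultured overnight, were loaded with a no-wash Ca2+ dye for 45–90 min. Calcium fluorescence was recorded on the FDSS for 110 s after compound addition, before the EC80 agonist (4 uM 54-4) was added.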
TRPV1 PAM: human TRPV1 potentiation; Q8NER1; TRPV1-expressing cells, Fluo-8 calcium influx, capsaicin EC20 potentiation; host cell line not named in the record; control for the full effect not named in the record; potentiation, % at 8.33 µM; 320,000 compounds, 0.02% hits; active means potentiation above 80%; inconclusive means 30% to 80%; inactive means below 30%; further: 0% is about no effect
Target sequence (Q8NER1 whole entry, looked up): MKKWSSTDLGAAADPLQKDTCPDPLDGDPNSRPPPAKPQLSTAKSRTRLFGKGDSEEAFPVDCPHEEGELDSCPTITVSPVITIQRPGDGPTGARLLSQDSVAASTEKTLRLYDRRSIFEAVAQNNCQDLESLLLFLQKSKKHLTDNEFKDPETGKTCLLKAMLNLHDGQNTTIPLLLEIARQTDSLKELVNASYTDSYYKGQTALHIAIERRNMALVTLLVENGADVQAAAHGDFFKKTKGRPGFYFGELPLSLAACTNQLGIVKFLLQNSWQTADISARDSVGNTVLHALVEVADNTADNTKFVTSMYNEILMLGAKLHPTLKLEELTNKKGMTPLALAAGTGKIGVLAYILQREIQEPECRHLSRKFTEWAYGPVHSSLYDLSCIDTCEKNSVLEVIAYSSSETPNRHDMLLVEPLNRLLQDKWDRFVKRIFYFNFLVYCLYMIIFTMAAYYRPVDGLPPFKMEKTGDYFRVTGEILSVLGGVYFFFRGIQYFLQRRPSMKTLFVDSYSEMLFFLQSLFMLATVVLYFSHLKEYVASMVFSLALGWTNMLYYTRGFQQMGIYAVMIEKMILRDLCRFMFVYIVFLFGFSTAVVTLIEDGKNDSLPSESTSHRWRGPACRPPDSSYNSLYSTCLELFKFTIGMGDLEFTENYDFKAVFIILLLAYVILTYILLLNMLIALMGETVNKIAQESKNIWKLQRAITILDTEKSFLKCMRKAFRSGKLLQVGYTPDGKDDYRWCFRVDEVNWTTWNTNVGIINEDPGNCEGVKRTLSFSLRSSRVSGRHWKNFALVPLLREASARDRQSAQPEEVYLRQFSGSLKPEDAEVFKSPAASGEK
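Fluo-8 calcium influx in TRPV1-expressing cells, kinetic read (ex 480/em 520 nm). Compound added and read 3 min for agonist activity, followed by capsaicin at EC20 final and 2 min further read for enhancement.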
D2 potentiator: potentiates the human D2 dopamine receptor allosterically; P14416; DiscoveRx D2 beta-arrestin cells, luminescence, 90 min; 100% = 57 uM dopamine signal; potentiation, % (test concentration not listed); 360,000 compounds, 0.23% hits; AID 624464; active = potentiation of 50% or more; inconclusive = 30% to 50%; inactive = 30% or less;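 further: compound concentration not given in the record; tested on top of an EC20 dose of dopamine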
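D2 cells co-treated with compound plus 50 nM dopamine (EC20) for 90 min at 37 deg C to detect potentiation. Beta-arrestin recruitment was read as enzyme-fragment luminescence after 1 h at ambient temperature. Full response was set by 57 uM dopamine.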
Starred values were filed as active, the others as inactive; u = inconclusive; x = not tested or not shown; & = joins results of further samples.

SMILES	Six1-Eya2 blk	CtBP-E1A inh	TRPML1 blocker	TRPML1 agonist	TRPV1 PAM	D2 potentiator
N#CCC(=O)Nc1ccc(C(=O)OCC(=O)Nc2cccc3ccccc23)cc1	3	-24	10	-0.5	x	-11
COc1ccc(OC)c(-c2nn(-c3ccccc3)cc2C(=O)NCC2CCCO2)c1 (stereo not drawn)	5	-4	-2	0.1	x	-20
COc1ccc(-c2nc(CSCC(=O)N3CCc4ccccc43)c(C)o2)cc1OC	-3	3	-1	0.6	-10	-10
NC1=NC[C@H](Cc2ccc(O)cc2)N1CC1CCCCC1	-3	x	20	-0.2	-7	1
Brc1ccc2c(c1)C(c1ccc(N3CCOCC3)cc1)=NNC(c1cccs1)=N2	-17	-11	-5	-0.1	-1	-11
CC1(C(=O)NCc2ccccc2)CCC(=O)N1CCCn1ccnc1 (stereo not drawn)	3	6	x	0.0	x	-2
Cc1ccc(OS(=O)(=O)c2c(C)nn(C)c2Cl)c(C)c1	7	17	7	1.9	1	-7
Cc1ccc(NS(=O)(=O)c2cccc3cccnc23)cc1Cl	-17	x	-12	2.4	6	3
COc1ccc(CNC(=O)C(C)N=C2NS(=O)(=O)c3ccccc32)cc1OC (stereo not drawn)	1	-3	0	-1.0	2	-3
Cc1ccc(C)c(NC(=O)COC(=O)CCCN=C2NS(=O)(=O)c3ccccc32)c1	-10	-20	-1	0.3	7	-17
CC(=O)c1ccc(N2CCN(C(=O)c3cc(-c4ccncc4)nc4ccc(Br)cc34)CC2)cc1	4	-1	24	1.4	4	6
Oc1ccc(/C=N/N2CCN(Cc3ccccc3)CC2)cc1	0	x	3	-0.8	-3	-68
COc1cc(OC)cc(C(=O)NNC(=S)NC2CC2)c1	-1	1	-5	-0.6	4	-16
Cc1ccc(C(C)C)c(OCCN)c1	5	0	-16	3.3	5	-15
Cc1cccc(C)c1Nc1c(-c2ccccc2F)nc2cccc(C)n12	x	x	-24	5.1	-11	x
CCOC(=O)c1ccc(NC(=O)CCNS(=O)(=O)c2ccc3c(c2)oc(=O)n3C)cc1	-2	-6	3	0.4	18	5
Cc1ccc(NC(=O)CN(C)C(=O)c2ccccc2Sc2ccccc2C#N)cc1	-6	7	9	-1.1	-3	-5
N#CC(NC(=O)OCc1ccccc1)c1ccccc1 (stereo not drawn)	1	15	0	-0.6	15	-15
O=C(Cn1cc(/C=N/NC(=O)c2cccc(C(F)(F)F)c2)c2ccccc21)Nc1ccc(F)cc1	4	1	14	0.5	-16	-10
CCN(CC)CCNc1nc2cc(OC)c(OC)cc2c2nc(-c3ccccc3)nn12	-14	-25	-14	-0.1	5	-12
CN1CCN(c2ccc(CNS(=O)(=O)c3ccc(F)cc3Cl)cc2)CC1	-6	1	53	0.2	6	-11
CCOc1cc2[nH]c(=O)n(CCc3ccc(OC)c(OC)c3)c(=O)c2cc1OCC	5	-3	-13	0.6	15	-3
ClCC1CN(Cc2ccccc2Cl)CCO1 (stereo not drawn)	5	1	32	-0.2	6	-3
NC(=O)C12C(=O)NC(=O)C1(C(=O)O)C21CCCC1 (stereo not drawn)	11	-2	5	-0.6	x	-12

A draw from above in order of heavy-atom count, falling:
SMILES	Six1-Eya2 blk	CtBP-E1A inh	TRPML1 blocker	TRPML1 agonist	TRPV1 PAM	D2 potentiator
O=C(Cn1cc(/C=N/NC(=O)c2cccc(C(F)(F)F)c2)c2ccccc21)Nc1ccc(F)cc1	4	1	14	0.5	-16	-10
Cc1ccc(NC(=O)CN(C)C(=O)c2ccccc2Sc2ccccc2C#N)cc1	-6	7	9	-1.1	-3	-5
Cc1cccc(C)c1Nc1c(-c2ccccc2F)nc2cccc(C)n12	x	x	-24	5.1	-11	x
COc1cc(OC)cc(C(=O)NNC(=S)NC2CC2)c1	-1	1	-5	-0.6	4	-16
NC(=O)C12C(=O)NC(=O)C1(C(=O)O)C21CCCC1 (stereo not drawn)	11	-2	5	-0.6	x	-12
ClCC1CN(Cc2ccccc2Cl)CCO1 (stereo not drawn)	5	1	32	-0.2	6	-3

The list goes on:
SMILES	Six1-Eya2 blk	CtBP-E1A inh	TRPML1 blocker	TRPML1 agonist	TRPV1 PAM	D2 potentiator
COC(=O)c1ccc(C(=O)OC)c(NC(=O)CN(c2ccccc2)S(=O)(=O)N(C)C)c1	2	-10	16&26	1.2&2.1	0	-1
COc1ccc(Nc2ncnc3scc(-c4ccc(OC)cc4)c23)cc1	-4	-2	46	4.0	-34	1
O=C(NCCSc1ccccc1)c1cccnc1	4	-10	47	1.3	-22	-6
O=C(c1cccc(Cl)c1)c1nn(-c2ccccc2)c(=O)cc1C(F)(F)F	u	-73*	-16	-0.1	-2	5
COc1ccc(N2CCN(C(=O)CCC(=O)N3CC(C)Oc4ccc(C)cc43)CC2)cc1 (stereo not drawn)	-3	-17	31	0.0	-11	-6
COC(=O)c1cn(NC(=O)CC2CCCCC2)c(=O)c2ccccc12	9	9	0	0.3	-13	-11
N#CCCSC(=S)C1CCCC1=N (stereo not drawn)	-21	-2	2	-0.8	x	-6
Brc1ccc2ncc3ccccc3c2c1	17	-8	-5	2.0	x	-5
COc1ccc(CCNC(=O)CCn2c(SCC#N)nc3ccccc3c2=O)cc1OC	9	2	3	0.4	-7	-4
NC(=O)CSc1nnc(-c2cnccn2)n1Cc1ccco1	-9	-8	21	0.5	12	-2
O=C(CSc1nc(Nc2ccccc2)nc(N2CCOCC2)n1)Nc1ccc([N+](=O)[O-])cc1	-1	-1	14	1.9	3	-8
COc1ccc(Cl)cc1N(C(C)C(=O)O)S(C)(=O)=O (stereo not drawn)	1	5	9	0.0	3	0

Ordered by value in CtBP-E1A inh (falling): six of the compounds above.
molecule,CtBP-E1A inh
COc1ccc(Cl)cc1N(C(C)C(=O)O)S(C)(=O)=O (stereo not drawn),5
O=C(CSc1nc(Nc2ccccc2)nc(N2CCOCC2)n1)Nc1ccc([N+](=O)[O-])cc1,-1
COc1ccc(Nc2ncnc3scc(-c4ccc(OC)cc4)c23)cc1,-2
Brc1ccc2ncc3ccccc3c2c1,-8
O=C(NCCSc1ccccc1)c1cccnc1,-10
O=C(c1cccc(Cl)c1)c1nn(-c2ccccc2)c(=O)cc1C(F)(F)F,-73*

New compounds follow.
SMILES	Six1-Eya2 blk	CtBP-E1A inh	TRPML1 blocker	TRPML1 agonist	TRPV1 PAM	D2 potentiator
CCOc1ccc(S(=O)(=O)NCc2ccccc2OC)cc1	5	0	-13	1.2	-3	6
COc1ccc(/C(C)=N\Nc2nc(-c3ccc(Cl)cc3)cc(C(F)(F)F)n2)cc1OC	3	-3	22	3.6	-5	-4
CCOc1ccc(C(F)(F)F)cc1NC(=O)c1ccc(OC)c([N+](=O)[O-])c1	9	3	68	1.4	-6	-2
CN(Cc1nc2ccccc2c(=O)[nH]1)C(=O)c1cc(-c2ccc(Br)cc2)nc2ccccc12	-2	19	2	0.6	x	-10
CCCCN(C=O)c1c(CC)nc2ccc(C(=O)N(CC)CCN(C)C)cn12	-6	4	-8	-0.1	x	-14
CCOc1ccc(CN2CCNC(=O)C2CC(=O)NCCCn2ccnc2)cc1 (stereo not drawn)	-3	0	-8	0.6	-6	1
CCN(CC(=O)Nc1cccc(OC)c1)C(=O)c1cccc(S(=O)(=O)N2CCc3ccccc32)c1	-8	1	4	2.5	5	-23
COc1ccc(-n2cnnc2SCC(=O)N(C)C2CCS(=O)(=O)C2)cc1 (stereo not drawn)	6	-3	2	-0.3	-3	-14
COc1cccc2sc(=NC(=O)CCS(=O)(=O)c3ccc(C)cc3)n(C)c12	0	-16	12	0.5	-1	-3
O=C(Nc1ccc(OC(F)(F)F)cc1)c1cccc(-n2cnnn2)c1	27	0	60	3.1	-10	-31
CN(c1ccccc1C(=O)NCC1CCCO1)S(C)(=O)=O (stereo not drawn)	2	7	11	-0.7	5	9
CCOC(=O)c1c(CSC(=N)N)n(C)c2cc(Br)c(OC(C)=O)cc12	-3	-21	-1	1.4	0	-19
CC(C)CCN1CCN(C2CSCCSC2)CC1CCO (stereo not drawn)	3	-7	23	0.2	u	-5
O=C(c1ccc(Cl)nc1)N1CCN(S(=O)(=O)c2ccc3c(c2)OCCO3)CC1	-1	x	5	-0.7	7	7
Cc1ccc(C(=O)Nc2ccc3nc(C)sc3c2)s1	-1	-4	-9	0.6	-14	-5
CCOc1ccccc1NC(=O)N1CCCC(c2nc3c(nnn3Cc3ccc(C)cc3)c(=O)[nH]2)C1 (stereo not drawn)	-1	-8	21	-0.3	8	-12
Cc1cc(C)c(C#N)c(SCc2nc3ccccc3c(=O)[nH]2)n1	1	-1	-4	2.4	-1	-5
CCOC(=O)C1CCCN(c2c(NCCCN(CC)c3ccccc3)c(=O)c2=O)C1 (stereo not drawn)	0	0	43	0.6	19	-8
O=C(CN1CCN(CC(=O)Nc2ccc3c(c2)OC2(CCCCC2)O3)CC1)Nc1cccc(F)c1	-17	23	17	-0.2	x	6
